Bioassay records: PubChem BioAssay, Fisher Drug Discovery Resource Center
NPYLR7 agonist: activates Aedes aegypti NPYLR7 receptor. HEK293T NPYLR7/Galpha15, GCaMP6s calcium fluorescence. activation, % at 10 µM. 0.15% of 270,000 active; in the data active means activation above about 40%;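 further: 0% = vehicle and 100% = reference agonist at the receptor; some compounds past the cut are filed as inactive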
NPYLR7 agonist max-min: further read-out of NPYLR7 agonist, marked with its call; activation, %; measured here: Max-Min RFU normalised activation; some inactives read as strong as hits;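 span of the calcium signal over five minutes; 0% = vehicle and 100% = native peptide agonist; compound fluorescence can raise it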
The depositor's hits bear a star; & = joins results of further samples. Only part of the results is shown; the hit share may differ from the screen's.

SMILES	NPYLR7 agonist	NPYLR7 agonist max-min
CC(C)C(C(=O)NCc1ccc(S(=O)(=O)N2CCOCC2)s1)c1ccc(Cl)cc1 (stereo not drawn)	-2	-2
CC1(c2ccccc2Br)NC(=O)N(Cc2ccccc2F)C1=O (stereo not drawn)	2	0
O=C(CSc1nc(=O)n(CCO)c2c1CCC2)N1CCN(c2ccccc2)CC1	0	-9
CN1C(=O)/C(=C/c2ccc(OC(F)F)cc2)c2cc(Br)ccc21	1	0
Cc1nc2ncccc2c(=O)n1-c1ccc(F)c(NC(=O)c2ccc(Cl)c([N+](=O)[O-])c2)c1	5	1
Cc1nc(-c2cn(CCN)nn2)n(-c2cc(Cl)ccc2Cl)n1	-2	-4
O=C(c1ccc2c(c1)CCO2)N1CC(c2ccncc2)C1	0	12
C=C(C)COc1ncnc2c1sc1nc3c(cc12)COC(C)(C)C3	-3	-5
CC(C)Cc1noc(CN(Cc2ccccc2O)CC2CCCO2)n1 (stereo not drawn)	13	13
CC(NS(=O)(=O)N(C)CCC#N)c1ccc(Cl)cc1Cl (stereo not drawn)	1	1
CCc1nc2ccc(C(=O)N(CC)CCN(C)C)cn2c1N(C)C(=O)C1CCCCC1	-9	-12
CCOC(=O)Cn1c(=NC(=O)c2ccc([N+](=O)[O-])cc2)sc2ccccc21	0	1
Cc1cc(C)c2sc(N(CCCN3CCOCC3)C(=O)c3cccs3)nc2c1	-1	-3
COc1ccc(N2C(=O)C3C4C=CC(C3C2=O)C2C(=O)N(c3ccc(OC)cc3)C(=O)C42)cc1 (stereo not drawn)	1	-5
CC(C)c1cc(C(=O)NCc2ccccn2)nn1-c1nc2ccccc2s1	11	-2
CCn1cc(Cn2ccnc2-c2ccc(Oc3ncccn3)cc2)cn1	2	0
COc1ccc(-c2nnc(NC(=O)C(C)NC(=O)c3cccc(Br)c3)s2)cc1 (stereo not drawn)	19	14
CCOC(=O)N1CCC(NC(=O)c2cc3cccnc3n(C(C)C)c2=O)CC1	3	2
Nc1cc(-c2ccc(Cl)c(Cl)c2)nn1-c1ccc(C(=O)NCCc2c[nH]c3ccccc23)cc1	1	-4
CCc1c(CN2CCC(C)CC2)csc1C	2	1
CCCCN(C(=O)CCl)c1c(N)n(CCCC)c(=O)[nH]c1=O	-7	-14
CCCNC(=O)COC(=O)c1ccc(-c2cccc(C(F)(F)F)c2)o1	14	4
O=[N+]([O-])c1ccc2c(cnn2C(F)F)c1	-3	-3
COc1ccc2[nH]c3c(c2c1)CCN(C(=O)c1ccc(OC(F)(F)F)cc1)C3COCc1ccccc1 (stereo not drawn)	13	-3
Cc1ccc(S(=O)(=O)NCCc2nnc3ccc(SCc4ccccc4F)nn23)cc1	3	-8
CC(C)Oc1nc(-c2ccco2)n(-c2ccc(N)cc2)n1	-1	10
CN1CCN(c2ncccc2CNC(=O)C2CCCN2S(C)(=O)=O)CC1 (stereo not drawn)	-2	-11
Cc1ccc(CNCC2(O)CCCN(CCc3ccccc3)C2=O)o1 (stereo not drawn)	8	3
CC(C)CN(CC(C)C)C(=O)c1ccc(-n2nc(-c3cccc(C(F)(F)F)c3)cc2N)cc1	-11	-18
Cc1csc(NC(=O)c2ccc(COc3cccc4c3OC(C)(C)C4)cc2)n1	-4	0
CC(C)SC(NC(=O)OCc1ccccc1)C(=O)NCCc1ccccc1F (stereo not drawn)	-1	-1
Cc1ccc(Cn2nc(C)c(C=c3s/c(=C\C(=O)C(C)(C)C)[nH]c3=O)c2C)cc1	-1	-2
CC(C)(C)c1ccc(-n2c(=O)[nH]c3c(C(N)=O)nc(-c4ccc([N+](=O)[O-])cc4)nc32)cc1	-3	-5
CCN1CCN(C(c2cccc(Cl)c2)c2c(O)cc(C)n(CCOC)c2=O)CC1 (stereo not drawn)	9	4
COc1ccc(/C=C/C(=O)N2CCC[C@H]2C(=O)OCCc2ccc(OC)c(OC)c2)cc1	3	0
O=C(c1cccc(F)c1)N(Cc1cccc(C(F)(F)F)c1)CC1CC(c2ccc(Cl)o2)=NO1 (stereo not drawn)	22	17
N#Cc1cccc(NN=C2CCN(c3ccc(F)cc3)CC2)c1	11	8
CN1C(=O)NC(c2ccccc2)C2=C1CN(C1CC1)C2=O (stereo not drawn)	4	17
Cc1cc(-c2nnc(NC(=O)CCc3ccccc3)o2)n(C)n1	0	0
COC(=O)c1c(C)[nH]c(C(=O)COC(=O)c2cc(Cl)ccc2Cl)c1C	1	2

Gathered by group, the entries above containing a tert-butyl group.
SMILES	NPYLR7 agonist	NPYLR7 agonist max-min
Cc1ccc(Cn2nc(C)c(C=c3s/c(=C\C(=O)C(C)(C)C)[nH]c3=O)c2C)cc1	-1	-2
CC(C)(C)c1ccc(-n2c(=O)[nH]c3c(C(N)=O)nc(-c4ccc([N+](=O)[O-])cc4)nc32)cc1	-3	-5

Next section:
SMILES	NPYLR7 agonist	NPYLR7 agonist max-min
O=C(CCc1ccccn1)N1CCCC(CNC(=O)C2(c3ccc(Cl)cc3)CC2)C1 (stereo not drawn)	4	1
Cc1cn2c3c(=O)n(CCN4CCCCC4)c(=O)n(C)c3nc2n1-c1ccc(Br)cc1	24	11
O=C1Nc2ccccc2C1=Nc1cccc([N+](=O)[O-])c1	4	3
CC1(C(=O)N2Cc3ccccc3C2)CCN1C(=O)CC1CCCC1 (stereo not drawn)	8	4
Cc1ccc(CN(Cc2ccco2)Cc2ccc(C(O)(c3cccc(F)c3)c3cccc(F)c3)o2)s1	-6	1
CC(=NO)C(C)N(O)C(C)C(C)=NO (stereo not drawn)	6	10
CCC(C)(C)c1ccc(S(=O)(=O)N2CCN(c3nc4ccccc4nc3-c3ccccc3)CC2)cc1	4	1
CC(C)C1CN(C(=O)c2ccc(S(N)(=O)=O)cc2)CCCN1CC1CC1 (stereo not drawn)	6	7
COc1ccc(C2CCCN2S(=O)(=O)c2ccc(N)cc2)cc1OC (stereo not drawn)	-6	0
CC1(C)OC[C@H]2O[C@@H]3OC=C4CC(=O)[C@H]([C@@H]2O1)[C@@H]43	-5	-1
CC(C)N(CC(=O)N(Cc1cccn1Cc1ccccc1Cl)C1CCCCC1)C(=O)c1ccc(F)cc1	-4	4
CCCS(=O)(=O)N1CCN=C1SCc1ccc(C)cc1	26	24
Cc1ccc(S(=O)(=O)C2CCCC(=O)C2=C(O)c2cn(-c3ccccc3)nn2)cc1 (stereo not drawn)	0	-4
CCN(CC)CCNC(=O)c1cc(NC(=O)c2ccc(Cl)cc2Cl)ccc1N1CCN(c2ccccc2OC)CC1	-5	7
Cc1ccnc(NC(=O)c2sc3nc(-c4ccccc4)cn3c2C)c1	5	1
Cc1nc(C)c(Cc2c(F)cccc2Cl)c(N2CCN(S(C)(=O)=O)CC2)n1	24	27
Cc1ccc(C)c(NC(=O)Nc2ccc(Nc3ccc(-n4cccn4)nn3)cc2)c1	-3	-5
c1ccc(C(Cn2ccnc2-c2ccncc2)N2CCCCC2)cc1 (stereo not drawn)	0	-4
COc1ccc(CCNC(=O)c2cc(-c3ccc(Cl)cc3)nc3ccccc23)cc1OC	-17	-20
CNc1ncc(Br)nc1Br	10	3
Cc1ccc(NC(=O)NCCNc2cc(-n3nc(C)cc3C)ncn2)c(Cl)c1	-3	-12
COc1ccc(-c2[nH]ncc2CN2CCCCC2CCNC(C)=O)c(OC)c1 (stereo not drawn)	18	10
Cc1nn(-c2ccccc2Cl)c(C)c1C(=O)O	5	17
Cc1nn(C(C)C)c(C)c1S(=O)(=O)N(c1ccccc1F)C1CCCC1	4	1
CC(C)NC(=O)N(Cc1cccc(Cl)c1)CC1CC(c2ccc(F)cc2F)=NO1 (stereo not drawn)	1	6
C=CCN(CC(=O)N1CCc2sccc2C1c1ccc(Cl)cc1)C(=O)C(C)Cl (stereo not drawn)	-6	1
Cc1cc(C2CCC2)nc(N2CCNC(c3ccccc3)C2)n1 (stereo not drawn)	5	2
COc1ccc(NC(=O)Cn2ncn3nc(-c4ccccc4)cc3c2=O)cc1OC	-10	-16
CCNc1ccnc(/C=C/c2ccccc2)n1	2	1
CC(=O)Oc1c(-c2ccc(N)cc2)c(C(C)C)nn1-c1cccc(F)c1	-11	-12

Whole records as entered above. Order of screens: NPYLR7 agonist, NPYLR7 agonist max-min
COc1ccc(NC(=O)Cn2ncn3nc(-c4ccccc4)cc3c2=O)cc1OC across the screens: -10, -16
CC(C)NC(=O)N(Cc1cccc(Cl)c1)CC1CC(c2ccc(F)cc2F)=NO1 (stereo not drawn) across the screens: 1, 6
Cc1cc(C2CCC2)nc(N2CCNC(c3ccccc3)C2)n1 (stereo not drawn) across the screens: 5, 2
CC(=O)Oc1c(-c2ccc(N)cc2)c(C(C)C)nn1-c1cccc(F)c1 across the screens: -11, -12

In another format: two of the compounds above
Every second line gives: NPYLR7 agonist, NPYLR7 agonist max-min
Cc1cc(C2CCC2)nc(N2CCNC(c3ccccc3)C2)n1 (stereo not drawn)
→ 5, 2
COc1ccc(NC(=O)Cn2ncn3nc(-c4ccccc4)cc3c2=O)cc1OC
→ -10, -16

Next records
SMILES	NPYLR7 agonist	NPYLR7 agonist max-min
CCOC(=O)C1=C(C)N=c2s/c(=C\c3ccc(C(C)C)cc3)c(=O)n2C1c1ccccc1 (stereo not drawn)	-1	-2
CCOC(=O)NNC(=O)c1cc(C)oc1C	2	9
O=C(c1csnn1)N1CCc2c(Br)cccc2C1	4	0
N#Cc1nc[nH]c1C#N	18	15
CC(C)Cc1nnc(NC(=O)CCn2[nH]c(=O)ccc2=O)s1	3	1
O=C(NCCn1c(=O)oc2ccccc21)Nc1ccc(F)cc1	-4	-4
CCn1nc(NC(=O)CCC(=O)O)c2cc3ccccc3nc21	0	-2
NC(=O)CCS(=O)(=O)CCN1CCOCC1	9	8
CCOC(=O)C1CCCN(C(=O)c2nn(-c3ccc(Cl)cc3)c(=O)n(CC)c2=O)C1 (stereo not drawn)	9	8
CCOC(=O)Cn1c(=O)c2c(nc3n(-c4cc(C)ccc4C)c(C)c(C)n23)n(C)c1=O	6	13
CCOC(=O)c1c(NC(=O)CN2CCCCC2)sc2c1CCC(C)C2 (stereo not drawn)	0	-5
CC(c1ccc(F)cc1)N(C)S(=O)(=O)c1ncn(C)c1Cl (stereo not drawn)	3	2
CN(Cc1ccco1)C(=O)NCCc1cccc(Cl)c1	9	6
COc1ccc(N2C(=O)CSC2c2ccc(NC(=O)c3ccc(F)cc3)cc2)cc1 (stereo not drawn)	10	15
CC(C)CC(N)c1csc(Nc2cnccn2)n1 (stereo not drawn)	12	11
Cc1nccn1CC1(CNC(=O)C2CCCN(CC(N)=O)C2)CC1 (stereo not drawn)	12	0
Cc1nc(C)c(Cc2cccc(C(F)(F)F)c2)c(N2CCN(C(=O)Nc3ccc(C(F)(F)F)cc3)CC2)n1	0	4
CC1(C(=O)Nc2cccc(NS(C)(=O)=O)c2)CCN1CCCc1ccccc1 (stereo not drawn)	3	4
COc1ccc2c(c1OC)C(=O)N(c1ccc3c(c1)CCC3)C2=O	5	-1
c1cncc(COC2CCN(Cc3ccc4occc4c3)CC2)c1	12	9

Single values from the list.
COc1ccc(N2C(=O)CSC2c2ccc(NC(=O)c3ccc(F)cc3)cc2)cc1 (stereo not drawn) @ NPYLR7 agonist max-min = 15
c1cncc(COC2CCN(Cc3ccc4occc4c3)CC2)c1 @ NPYLR7 agonist max-min = 9

Further compounds follow:
SMILES	NPYLR7 agonist	NPYLR7 agonist max-min
CC(NC(=O)C1CCN(C)C(=O)C1)c1nc2ccccc2n1C(C)C (stereo not drawn)	-5&0	-6&1
C=CCSc1nnc(NC(=O)CC23CC4CC(CC(C4)C2)C3)s1	17	8
CCCc1cc(CN(C)C[C@@H]2CCCN3CCCC[C@H]23)[nH]n1	18	7
CCn1c(SC(C)C(=O)NCc2ccc(F)cc2)nnc1-c1ccco1 (stereo not drawn)	3	-2
CCCCC(=O)Nc1nnnn1CCC	0	-2
CC1CN(C(=O)OC(C)(C)C)CC(C)N1CC(=O)N(C)CCC#N (stereo not drawn)	6	2
CN(C)C(=O)c1cccc(Oc2nc3ccccc3o2)c1	-6	-7
NS(=O)(=O)c1cccc(CNS(=O)(=O)/C=C/c2ccc(Cl)cc2)c1	4	4
CCn1c(C2CC(=O)N(c3ccc(Br)cc3)C2)nc2ccccc21 (stereo not drawn)	-2	22
Cc1ccc(-n2c(SCC(=O)O)nnc2C2CCNCC2)cc1	9	6
Cc1ccc2nc(-c3cc(NC(=O)c4ccccc4[N+](=O)[O-])ccc3Cl)oc2c1	-7	3
COc1cccc(C(=O)Nc2cc(C)nn2-c2ncnc3c2cnn3-c2ccc(C)cc2C)c1	10	7
C=C(C)CNC(=O)C1CCCN(C2CCN(Cc3ccncc3)CC2)C1 (stereo not drawn)	3	-1
CN(Cc1ccc(CN(C)S(C)(=O)=O)o1)Cc1cccc2ncccc12	25	12
COc1ccc(N2CCn3c2nnc(C(=O)NCCOCCO)c3=O)cc1	2	0
Cc1nccn1-c1ccc(NS(=O)(=O)c2ccc(C#N)cc2)cn1	10	7
CC(C)COC(=O)Nc1cccc(NC(=O)C(=O)N2CCSCC2)c1	7	4
CCOC(=O)c1c(C)oc(N)c1C(=O)OCC	-3	-3
CC(C)(C)c1cc2nc(-c3ccccc3)cc(C(=O)N3CCN(c4ccccc4Cl)CC3)n2n1	-2&14	2&17
Cc1nccc(-c2cccc(-n3ccnc3-c3ccco3)c2)n1	5	4
O=C(c1cccc2c(=O)c3ccccc3[nH]c12)N1CCCn2cncc2C1	-4	-6
Cc1ccc(CN(Cc2ccccc2)CC(O)COC(C)C)o1 (stereo not drawn)	19	30
Cc1nc(SCc2ccc(C(=O)NCC3CCCO3)cc2)nc(N2CCN(c3ccccc3Cl)CC2)c1C (stereo not drawn)	-1	3
CCCN(C)CCC(=O)NC(C#N)c1cccc(Cl)c1 (stereo not drawn)	14	10
COc1cc2c(cc1OC)C(CNC(=O)C1CCCC1)N(C(=O)Nc1cccc(F)c1)CC2 (stereo not drawn)	3	11
Cc1nc(CNc2nccc(CCC(F)(F)F)n2)nc2c1CCCC2	21	10
O=C(CS(=O)(=O)c1cccc(Br)c1)Nc1ccccc1F	-2	-3
CCOC(=O)C1=C(C)NC(C)=C(C(=O)OC)C1c1ccc([N+](=O)[O-])cc1 (stereo not drawn)	-7	-12
COc1ccc2nc(NNC(=O)c3cc(=O)c4ccccc4o3)sc2c1	-4	-4
